miR-21 reporter: miR-21 reporter, rising signal | Potency, µM (doses to about 38.3 µM), for the others: top-dose reporter change, positive = more light | 340,000 tested, under 10 active | HeLa miR-21 FLuc reporter, luciferase, 48 h; active = well fitted rising curve with a large enough effect; inconclusive = small, poorly fitted or top-dose-only effect; inactive = no such curve, though single readings can be large or run the other way;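 note: % of control where 0% means no effect; miR-21 action dims this reporter so a rising signal means less miR-21 action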
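Compounds were titrated across several concentrations (up to approximately 40 uM) and incubated 48 hours with HeLa miR-21-FLuc reporter cells (miR-21 target sequence downstream of FLuc, endogenous miR-21). Readout was firefly luciferase luminescence after lytic detection reagent.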
* hit, by the source's call; ? = inconclusive; [ ] = another dose, or the depositor's remark. Only part of the results is shown, so the mix of outcomes need not match the whole.

SMILES | miR-21 reporter
O=C(Nc1ccc(S(=O)(=O)N(Cc2ccccc2)c2ccccc2)cc1)c1ccc([N+](=O)[O-])cc1 | -3.0%
CN(Cc1ccccc1)c1nnc(NC(=O)Nc2cccc(Br)c2)s1 | 0.0%
COc1ccc(N(Cc2cccs2)C(=O)c2ccc(Br)o2)cc1 | -6.6%
O=C(NCc1ccccc1)c1ccc(CS(=O)(=O)c2c(Cl)cccc2Cl)o1 | -1.0%
CCOC(=O)C1CCN(S(=O)(=O)c2cc(Br)cc3c2N(C(=O)CC)CC3)CC1 | -2.4%
Cc1cc2oc(=O)cc(C)c2c2occ(-c3ccc(Cl)cc3)c12 | 0.0%
Cc1cc(C)cc(NC(=O)Cn2c(=O)c3ccccc3n3nncc23)c1 | -1.3%
CCc1ccc(S(=O)(=O)c2nnn3c2nc(NCc2cccs2)c2sccc23)cc1 | -22.7%
COc1ccc(Br)cc1CNC(=O)CCSCc1ccc(C)cc1 | 15.6%
CCOC(=O)c1ccc(NC(=O)CC2C(=O)N(c3ccccc3)C(=O)N2C2CCCCC2)cc1 (stereo not drawn) | 7.4%
Cc1ccc(-n2ncc(C(=O)N(C)Cc3ccccc3)c2-n2cccc2)cc1 | ?
COc1cccc(CN2C(=O)c3ccccc3C2C(=O)NCCc2ccccc2)c1 (stereo not drawn) | -4.4%
CCOc1ccc(NC(=O)c2sc3nc4c(cc3c2N)CCCCCC4)cc1 | -1.2%
CCOc1ccc2nc(Cl)c(C3CC(c4ccc(C)cc4)=NN3C(=O)CCCC(=O)O)cc2c1 (stereo not drawn) | 0.0%
Cc1ccc(NC(=O)CN(c2ccccc2)S(=O)(=O)N(C)C)cc1Cl | 6.5%
CCOC(=O)N1CCC2(CC1)OC(=O)C(C)=C2C(=O)NCc1ccc(C)cc1 | -4.0%
CC(C)c1ccc(NC(=O)C(Cc2ccccc2)NS(=O)(=O)c2ccc3c(c2)CCC(=O)N3)cc1 (stereo not drawn) | 12.7%
Cc1ccc(NC(=O)Cn2c(=O)c3ccc(Cl)cc3n3nncc23)cc1 | -1.9%
COc1cc(C2NC(=O)c3c(sc4c3CCN(C)C4)N2)cc(OC)c1OC (stereo not drawn) | 0.8%
Cc1ccc(CNC(=O)c2c(-c3ccccc3Cl)noc2C)o1 | -6.3%
CCOC(=O)c1c(C)c(-c2ccccc2)n(CC(=O)Nc2cccc(F)c2)c1C | -9.5%
CCOc1ccc(NC(=O)CC2C(=O)N(c3ccccc3)C(=O)N2Cc2cccc(OC)c2)cc1 (stereo not drawn) | -7.0%
COc1ccc(CC(=O)Nc2sc3c(c2C(=O)Nc2cccc(C)c2)CCCCC3)cc1 | -2.4%
COc1ccc(OC)c(CNc2ncnc3c2nc2n3CCCC2)c1 | 17.0%
Cc1cc(C)cc(NC(=O)Cn2c(C)cc(C)c(C#N)c2=O)c1 | 4.8%
CCOc1ccc(OCC)c(NC(=O)Cn2nc(CC)n3c(cc4sccc43)c2=O)c1 | -2.7%
Cc1ccc(Cl)cc1-n1ncc2c(NC3CCCCCC3)ncnc21 | 26.8%
Cc1cc(C)c2oc(C(=O)Nc3c(C(=O)c4ccc(F)cc4)oc4ccccc34)cc(=O)c2c1 | -0.2%
CC1=C(C(=O)Nc2ccc(Cl)cc2)C(C(C)C)n2nc(SCc3ccc(Cl)cc3)nc2N1 (stereo not drawn) | -0.9%
CSc1ccc(CCNC(=O)CN2C(=O)COc3ccc(S(=O)(=O)N4CCCCCC4)cc32)cc1 | -1.9%

7 entries from above, ordered by formula weight, highest first.
SMILES | miR-21 reporter
CSc1ccc(CCNC(=O)CN2C(=O)COc3ccc(S(=O)(=O)N4CCCCCC4)cc32)cc1 | -1.9%
CC(C)c1ccc(NC(=O)C(Cc2ccccc2)NS(=O)(=O)c2ccc3c(c2)CCC(=O)N3)cc1 (stereo not drawn) | 12.7%
O=C(Nc1ccc(S(=O)(=O)N(Cc2ccccc2)c2ccccc2)cc1)c1ccc([N+](=O)[O-])cc1 | -3.0%
O=C(NCc1ccccc1)c1ccc(CS(=O)(=O)c2c(Cl)cccc2Cl)o1 | -1.0%
CCOc1ccc(NC(=O)c2sc3nc4c(cc3c2N)CCCCCC4)cc1 | -1.2%
COc1cc(C2NC(=O)c3c(sc4c3CCN(C)C4)N2)cc(OC)c1OC (stereo not drawn) | 0.8%
Cc1ccc(CNC(=O)c2c(-c3ccccc3Cl)noc2C)o1 | -6.3%

(further entries)
SMILES | miR-21 reporter
COc1ccc(C2=CC(c3ccccc3Cl)n3nc(-c4ccc(C)cc4)nc3N2)cc1 (stereo not drawn) | 13.3%
COc1cccc(CN2CCc3nc(N4CCN(c5ncccn5)CC4)ncc3C2)c1 | 27.0%
Cc1nn(CC(=O)NCc2ccccc2Br)c(=O)c2cc3occc3n12 | -2.5%
CCc1ccc(NC(=O)Cn2c(=O)n(-c3cccc(OC)c3)c(=O)c3c(C)c(C(=O)N(C)C)sc32)cc1 | -5.3%
CCCCc1ccc(NC(=O)COc2cccc3c(=O)n(C)ccc23)cc1 | 21.4%
CCOc1ccccc1CNC(=O)CCCn1nc(C)c2sc3ccccc3c2c1=O | -9.2%
Cc1cccc(Oc2ccc3c(c2)Oc2ccccc2NC3=O)c1 | -13.1%
Cc1ccc(CN(C(=O)c2ccccc2F)c2ccccn2)o1 | -3.5%
Cc1ccc(NC(=O)CSc2nc3ccc(NC(=O)c4cccs4)cc3s2)cc1 | -7.0%
COc1cc(C)ccc1OCCSc1nc2ccc(NC(=O)c3ccc(F)cc3)cc2s1 | -3.6%
CC(C)(C)OC(=O)N1CCC(c2c(C(=O)N3CCc4ccccc4C3)cnn2-c2ccc(Cl)cc2)CC1 | ?
COc1ccc(C2(N3CCN(c4cccc(C)c4C)CC3)C(=O)c3ccccc3C2=O)cc1 | -0.1%
Cc1ccc2c(c1)N(C(=O)c1ccc(F)cc1)C(C)(C)CC2(C)c1ccccc1 (stereo not drawn) | 15.5%
CCOc1ccccc1NC(=O)c1c(NC(=O)COc2ccccc2)sc2c1CCCC2 | -1.2%
Cn1nc(-c2ccc(N3CCCCC3)c(NC(=O)c3ccc(Cl)cc3)c2)c2ccccc2c1=O | 2.3%
CCc1ccccc1NC(=O)C1CCN(S(=O)(=O)c2ccccc2)CC1 | -1.1%
COc1ccccc1CNC(=O)c1cnc2sc(N3CCCCCC3)nn2c1=O | -4.0%
Cc1cccc(N2CCN(S(=O)(=O)c3cc(C(=O)Nc4ccc(Oc5ccccc5)cc4)ccc3F)CC2C)c1 (stereo not drawn) | 26.2%
CN(C)c1ccc(-c2nc3cnccn3c2Nc2cccc(C(F)(F)F)c2)cc1 | 1.9%
CC(C)(C)c1ccc(CSC2=Nc3ccccc3C3=NC(CC(=O)NCc4cccs4)C(=O)N23)cc1 (stereo not drawn) | ?
CCOc1ccc(-c2nc3c(c(CC)nn3-c3ccccc3)c3cc(OC)c(OC)cc23)cc1 | 0.7%
O=C(CSc1nc(-c2ccccc2)nc2c1CCCC2)c1ccc(F)cc1 | 4.0%
Cn1cnc(S(=O)(=O)N2CCC(C(=O)Nc3ccc(OC(F)(F)F)cc3)CC2)c1 | 15.4%
O=C(CSc1nc2ccccc2n1Cc1ccccc1)N1CCN(c2ccc(F)cc2)CC1 | 1.1%
COc1ccc2c(c1)c1c(c(=O)n(-c3ccc(F)c(Cl)c3)c(=O)n1Cc1ccccc1F)n2C | -1.2%
COc1ccc(/C=C/C(=O)Nc2ccc3nc4c(c(Nc5ccc(OC)c(OC)c5)c3c2)CCCC4)cc1 | ?
Cc1ccc(CNC(=O)Cc2c(C)c3c(cc(C)c4c(C)coc43)oc2=O)cc1 | 2.9%
CC1=C(C(=O)Nc2cccnc2)C(c2cccc(F)c2)n2nc(SCc3ccccc3)nc2N1 (stereo not drawn) | -1.8%
COC(=O)c1c(-c2cccs2)csc1NC(=O)COc1ccc(C)cc1 | 14.2%
O=C1CC(c2ccccc2)Cc2[nH]c(=O)c(-c3nc(-c4ccc(Cl)cc4)cs3)cc21 (stereo not drawn) | 19.4%
Cc1cccc(OCC(=O)NCc2ccc3c(c2)CCN3C(=O)c2ccc(Cl)cc2)c1 | 7.7%
Cc1ccc(-n2c(=O)c3c(c4cc(C)ccc4n3C)n(CC(=O)NCc3ccccc3)c2=O)cc1 | -0.1%
Cc1ccccc1Cn1cc(S(=O)(=O)c2ccc(Cl)cc2)c(=O)c2cc3c(cc21)OCO3 | -1.8%
CC1=C(c2ccc(C(C)C)cc2)S(=O)(=O)NC1=NCc1ccc(OC(C)C)cc1 | -1.9%
CCc1ccccc1NC(=O)CSc1ncccc1C(=O)O | 1.1%
Cc1ccc(CSCCC(=O)N2CCN(c3ccc(F)cc3)CC2)cc1 | 25.2%
CCCN(CCC)C(=O)c1c[nH]c2ccc(S(=O)(=O)N(C)c3ccc(Cl)cc3)cc2c1=O | 3.0%
O=C(CCC1N=C2c3ccccc3N=C(SCc3cccc(F)c3)N2C1=O)NC1CCCCC1 (stereo not drawn) | 1.6%
COc1ccc(-n2nc(C(=O)Nc3cccc(C(F)(F)F)c3)c3c4ccccc4n(C)c3c2=O)cc1 | -1.7%
COc1ccccc1CNC(=O)c1cccn1-c1nnc(N2CCCC2)s1 | -14.5%
O=C(NC1CCN(Cc2ccccc2)CC1)c1ccc(Cn2c(=O)c3ccccc3n(Cc3ccc(F)cc3)c2=O)cc1 | -4.2%
Cc1ccc(NC(=O)Cn2cc3c(n2)CCC(C)C3)cc1C (stereo not drawn) | -10.0%
CCc1cccc(NC(=O)COc2cc(=O)n(CC)c3ccccc23)c1 | 0.7%
CCN(CC)c1cc(C)c2cc(NC(=O)c3cccc(F)c3)ccc2n1 | 13.2%
O=C(Cn1c(=O)n(Cc2ccccc2)c(=O)c2sc3ccccc3c21)Nc1ccccc1F | -6.8%
COc1ccccc1N1CCN(C(=O)CCc2nnc3n(C)c(=O)c4sccc4n23)CC1 | 1.7%
O=[N+]([O-])c1ccc(S(=O)(=O)N2CCn3cccc3C2c2ccccc2F)cc1 (stereo not drawn) | 26.6%
Cc1cc(-c2ccc(C)c(S(=O)(=O)NC(c3cccs3)C(C)C)c2)on1 (stereo not drawn) | 0.9%
Cc1ccc(CCNC(=O)c2cn(C)c3ccc(S(=O)(=O)N(C)C4CCCCC4)cc3c2=O)cc1 | -3.2%
COc1ccccc1N1CCN(C(=O)c2cn(C)c3ccc(S(=O)(=O)N(C)C4CCCCC4)cc3c2=O)CC1 | 3.3%
Cc1ccccc1-c1nc2scc(CCNS(=O)(=O)c3ccccc3)n2n1 | 0.1%
Cc1ccc(Cl)cc1NS(=O)(=O)c1ccc2c(c1)NC(=O)CCS2 | -1.9%
CCc1ccccc1N(C)C(=O)c1ccc2c(=O)n3c(nc2c1)CCCCC3 | 2.5%
Cc1ccc2c(c1)c(=O)c1ccccc1n2CCCC(=O)Nc1c(F)cccc1F | 0.3%
CC1=C(c2ccc(C(C)C)cc2)S(=O)(=O)NC1=NCc1ccccc1C | -5.5%
CC1Cc2cc(S(=O)(=O)CCC(=O)NCc3ccccc3Cl)ccc2N1C(=O)C1CC1 (stereo not drawn) | 20.0%
Cc1ccc2oc(-c3ccc(NC(=O)CCC(=O)O)cc3)nc2c1 | -55.8%
CCOC(=O)c1cc(-c2ccccc2)nn1Cc1ccccc1 | -57.6%
Cc1cccc(NC(=O)Cn2c(=O)n(Cc3ccccc3)c(=O)c3oc4ccccc4c32)c1C | -0.9%
Cn1c(-n2cccc2)c(-c2c(-c3ccccc3)[nH]c3c2c(=O)n(C)c(=O)n3C)c(=O)n(C)c1=O | 0.5%
The results go on.
SMILES | miR-21 reporter
CN(C)CCn1c2c(c(SCC(=O)Nc3ccc(F)cc3F)nc1=O)CCC2 | -5.5%
Cc1c(-c2nc(-c3ccccc3)no2)nnn1-c1ccc(F)c(Cl)c1 | -23.9%
COc1cccc(CNC(=O)C2CCN(c3nc4ccc(Cl)cc4[nH]3)CC2)c1 | 8.4%
CCc1ccccc1NC(=O)Cn1ncc2c(C)n(Cc3ccccc3F)c(C)c2c1=O | -2.0%
CCCC(=O)N(c1ccc2oc3c(c2c1)CCCC3)S(=O)(=O)c1cc(C)ccc1C | -0.2%
CCc1ccc(NC(=O)CSC2=Nc3ccccc3C3=NC(CCC(=O)NCCc4ccccc4)C(=O)N23)cc1 (stereo not drawn) | -3.2%
COc1cccc(N2CCN(S(=O)(=O)c3ccc4c(c3)CCCN4C(C)=O)CC2)c1 | -1.3%
CCc1ccc(S(=O)(=O)Nc2cc3c(cc2C)n(C)c(=O)c(=O)n3C)cc1 | 3.1%
CCc1cccc(C)c1NC(=O)C(CC)n1ncn2c(cc3cc(C)ccc32)c1=O (stereo not drawn) | -4.8%
Cc1cccc(N2CCN(C(=O)Cn3nc(C)c4sc5ccccc5c4c3=O)CC2C)c1 (stereo not drawn) | -6.7%
O=C(Nc1ccc(O)c(-c2nc3ccccc3o2)c1)c1cccs1 | 0.3%
Cc1onc(-c2ccccc2Cl)c1C(=O)Oc1ccccc1F | -1.5%
COc1ccc(OC)c(NC(=O)Cn2cc(C(=O)c3ccc(Cl)cc3)c(=O)c3cc(OC)ccc32)c1 | -7.9%
CCc1cnc2c(c1SCC(=O)Nc1cc(Cl)ccc1OC)c(=O)n(C)c(=O)n2C | 5.3%
COc1cccc(N2CCN(C(=O)c3ccc(Cn4c(=O)[nH]c5cc(OC)c(OC)cc5c4=O)cc3)CC2)c1 | ?
CC1(C)CC(=O)C2=C(C1)O[C@@]1(c3ccsc3)Cc3cc(C#N)ccc3C2O1 | -4.1%[7.66 µM]
COc1ccc(-c2cnc(C)o2)cc1S(=O)(=O)Nc1cccc(C(F)(F)F)c1 | 1.7%
COc1ccc(-c2nc(CSc3nnc(C)n4c3cc3sccc34)c(C)o2)cc1 | 1.6%
Cc1cc(C)cc(Nc2nc3ccccc3nc2-n2nc(C)cc2C)c1 | 0.6%
COc1ccc(CNC(=O)Cc2c(C)c3ccc(O)cc3oc2=O)cc1 | 3.9%
CCc1ccc(-c2cc3c(N4CCN(c5ccccc5)CC4)nccn3n2)cc1 | -41.5%
